CSC inhib: cancer stem cell viability inhibitors, primary screen, luminescence; cancer stem cell-like cells viability; inhibition, % at 7.5 µM; 300,000 tested, 1.1% active; AID 2717, 2010;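 active = mean at 75% or more and at least half the replicates too; tested in HMLE shEcad cells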;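 note: 0% = median of negative and 100% = median of positive control wells; the first replicate is given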
MT1-MMP act inh: blockers of MT1-MMP proenzyme processing, primary screen, HT1080 RFP-PRO-GFP cells, GFP/RFP fluorescence. GFP/RFP ratio fluorescence, overnight; percent of plate control window, DMSO zero. GFP/RFP ratio change, % at 20 µM. 360,000 tested, 0.061% active. Matrix metalloproteinase-14 (Homo sapiens), P50281;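 active = GFP/RFP ratio change of at least 30% with cell ATP level not reduced by more than half and red fluorescence within 50% of control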; note: strong numbers were not always called active
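Test system: HT1080 cells expressing an RFP-PRO-GFP fluorescent reporter construct / Compound dosing: single-point 20 µM compound, 1% DMSO / Schedule: cells overnight before dosing, compound overnight, 37 °C, 5% CO2 / Evaluation: GFP/RFP fluorescence ratio / Control set: DMSO and RFP-L50D-GFP cell wells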
UUG fidelity: modulators of yeast start codon fidelity, primary screen, whole organism, S. cerevisiae, single point, plate reader; S. cerevisiae UUG-firefly luciferase reporter, luminescence/redox ratio; activity score, % at 18.7 µM; 350,000 tested, 0.13% active; AID 602363, 2012;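 active = replicate mean at a twofold rise or more, about +100% in these data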;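 note: firefly luciferase made from a UUG start codon reports start codon fidelity; reporter light over untreated wells divided by growth signal over untreated wells; some hits fall short of that in this replicate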
HIV Env fusion: inhibitors of HIV-1 Env-driven cell-cell fusion, primary screen, HeLa-JRFL effector, CEM21 target cells, luciferase; inhibition, % at 12.3 µM; 360,000 tested, 1.1% active; AID 651610, 2012;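 active = mean replicate inhibition score of at least 50 and every replicate individually at or above 50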;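 note: 0% = plate neutral controls and 100% = maraviroc near 300 nM; one replicate is shown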
Rce1 inhib: yeast Rce1p protease inhibitors, primary screen, biochemical, fluorescence, cell-free homogeneous; CAAX prenyl protease 2 (Saccharomyces cerevisiae (strain ATCC 204508 / S288c)), Q03530; yeast membranes, quenched prenylated peptide cleavage fluorescence; calls only; 290,000 tested, 0.27% active; AID 2563, 2010;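 active = fall in fluorescence gain of 50% or more versus controls, with final raw signal at or below 3038400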;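 note: plate controls were neutral control wells for no effect and wells lacking membranes for full effect; tested at 10 µM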
Target sequence (Q03530 whole entry, looked up): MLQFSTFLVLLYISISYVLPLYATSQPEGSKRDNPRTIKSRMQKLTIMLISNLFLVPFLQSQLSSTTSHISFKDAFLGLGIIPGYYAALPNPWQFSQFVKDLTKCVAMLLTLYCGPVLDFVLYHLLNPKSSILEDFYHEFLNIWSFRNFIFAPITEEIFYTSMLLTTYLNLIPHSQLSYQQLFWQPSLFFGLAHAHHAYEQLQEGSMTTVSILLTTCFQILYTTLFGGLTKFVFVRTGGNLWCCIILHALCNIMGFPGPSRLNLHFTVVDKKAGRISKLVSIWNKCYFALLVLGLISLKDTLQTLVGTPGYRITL
eIF4H inh: human eIF4H binding inhibitors, primary screen, translation initiation inhibitor project, biochemical, uHTS, fluorescence polarization | 290,000 tested, 0.94% active | Eukaryotic translation initiation factor 4H (Homo sapiens), Q15056 | inhibition, % at 35 µM | eIF4H fluorescence polarization binding assay;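 active = 50% or more with normal probe brightness, or confirmed in later tests; about a fifth of its hits are not listed in these tables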;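 note: calls also rest on retests at 20 µM and on dose response follow-up; 0% = protein and probe with vehicle and 100% = probe without protein; strong numbers were not always called active; many hits fall short of the cut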
PABP polyA inh: PABP poly(A) RNA binding inhibitors, primary screen, biochemical, fluorescence polarization, uHTS | inhibition, % at 35 µM | Polyadenylate-binding protein 1 (Homo sapiens), P11940 | 290,000 tested, 1% active;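 active = 50% or more with normal probe brightness, or confirmed in later tests; about a fifth of its hits are not listed in these tables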;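 note: calls also rest on retests at 20 µM and on dose response follow-up; controls were probe without protein and protein plus probe with vehicle; some compounds called inactive have numbers as strong as hits; many hits fall short of the cut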
Target sequence (P11940 whole entry, looked up): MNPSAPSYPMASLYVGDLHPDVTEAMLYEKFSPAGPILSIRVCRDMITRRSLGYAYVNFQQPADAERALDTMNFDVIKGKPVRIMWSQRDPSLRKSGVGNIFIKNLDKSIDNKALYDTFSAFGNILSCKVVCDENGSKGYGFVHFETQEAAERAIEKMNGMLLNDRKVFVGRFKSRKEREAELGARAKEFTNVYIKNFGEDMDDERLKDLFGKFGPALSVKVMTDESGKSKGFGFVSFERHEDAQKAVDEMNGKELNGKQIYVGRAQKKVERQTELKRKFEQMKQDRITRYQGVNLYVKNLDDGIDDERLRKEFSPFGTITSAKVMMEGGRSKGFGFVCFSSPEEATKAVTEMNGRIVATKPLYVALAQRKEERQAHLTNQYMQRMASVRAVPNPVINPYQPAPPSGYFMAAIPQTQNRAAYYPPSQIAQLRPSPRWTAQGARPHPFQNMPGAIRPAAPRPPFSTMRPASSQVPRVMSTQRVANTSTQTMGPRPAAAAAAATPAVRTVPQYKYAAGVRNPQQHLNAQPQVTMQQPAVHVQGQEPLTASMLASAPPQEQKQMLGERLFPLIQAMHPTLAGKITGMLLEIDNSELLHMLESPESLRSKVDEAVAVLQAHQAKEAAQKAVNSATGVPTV
eIF4H inh retest: further read-out of eIF4H inh, marked with its call; inhibition, %; compound at 20 µM; confirmation average;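 mean of two retest wells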
PABP polyA inh retest: second read-out of PABP polyA inh, no call of its own (marks repeat the call); inhibition, %; compound at 20 µM; confirmation repeats;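 mean of two retest wells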
MT1-MMP act inh RFP: recorded beside MT1-MMP act inh, whose call it bears; RFP signal change, %; measured here: RFP expression control read;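 0 = vehicle wells; hits needed this value within 50% of zero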
* marks the source's active call; other numbers are inactive results.

Results for O=S(OCCN1CCCC1)C(c1ccccc1)c1ccccc1 (stereo not given) ?
MT1-MMP act inh: 2; UUG fidelity: -24; HIV Env fusion: -13; MT1-MMP act inh RFP: 0

How did COc1ccc2c(c1)c(CC(=O)OCC(=O)O)c(C)n2C(=O)c1ccc(Cl)cc1 do in these assays?
MT1-MMP act inh: -1; UUG fidelity: -38; HIV Env fusion: 24; Rce1 inhib: inactive; eIF4H inh: -5; PABP polyA inh: 9; MT1-MMP act inh RFP: 1

What do the screens show for `C=CCNC(=S)NNC(=O)c1cc(O)ccc1O`?
CSC inhib: -5; MT1-MMP act inh: 7; UUG fidelity: -20; HIV Env fusion: -5; Rce1 inhib: inactive; eIF4H inh: 7; PABP polyA inh: -12; MT1-MMP act inh RFP: 4

What do the screens show for `O=C(NCCCc1ccccc1)C(=O)c1c[nH]c2ccccc12`?
CSC inhib: 15; MT1-MMP act inh: -1; UUG fidelity: -9; HIV Env fusion: -11; Rce1 inhib: inactive; eIF4H inh: -10; PABP polyA inh: -1; MT1-MMP act inh RFP: -2

What do the screens show for `COc1ccccc1N1CCN(C(=O)c2cc3c(s2)CCC3)CC1`?
CSC inhib: -17; MT1-MMP act inh: 0; Rce1 inhib: inactive; eIF4H inh: 93; PABP polyA inh: 30; eIF4H inh retest: 1; PABP polyA inh retest: 8; MT1-MMP act inh RFP: 3

How did Oc1ccc(Nc2nc(-c3ccc4ccccc4c3)cs2)cc1 do in these assays?
CSC inhib: 134*; MT1-MMP act inh: -38; UUG fidelity: -32; Rce1 inhib: inactive; eIF4H inh: 0; PABP polyA inh: 10; MT1-MMP act inh RFP: -18

How did Cc1cccc(N(CC(N)=O)C2SC(=O)N(c3ccccc3)C2=O)c1 (stereo not given) do in these assays?
CSC inhib: -2; MT1-MMP act inh: -3; UUG fidelity: -8; Rce1 inhib: inactive; eIF4H inh: 5; PABP polyA inh: -12; MT1-MMP act inh RFP: 4

Results for O=C(NNS(=O)(=O)c1ccc([N+](=O)[O-])cc1)c1ccc2ccccc2c1O ?
CSC inhib: 1; MT1-MMP act inh: -5; UUG fidelity: -9; HIV Env fusion: 8; Rce1 inhib: inactive; eIF4H inh: -1; PABP polyA inh: 7; MT1-MMP act inh RFP: 1

What do the screens show for `O=C1NC2(CCCCC2)NN1c1ccccc1`?
CSC inhib: 44; MT1-MMP act inh: 0; UUG fidelity: -20; Rce1 inhib: inactive; eIF4H inh: -3; PABP polyA inh: -1; MT1-MMP act inh RFP: 2

What do the screens show for `Cc1ccc(OC(=O)CCC(=O)OCCCC(F)(F)C(F)(F)F)cc1`?
CSC inhib: 7; MT1-MMP act inh: 0; UUG fidelity: -10; HIV Env fusion: -98; Rce1 inhib: inactive; eIF4H inh: 1; PABP polyA inh: 0; MT1-MMP act inh RFP: 3

Results for N#CCCC1CCCC=C1N(Cc1ccccc1)C(=O)C(Cl)Cl (stereo not given) ?
CSC inhib: -13; MT1-MMP act inh: -1; UUG fidelity: 14; HIV Env fusion: 11; Rce1 inhib: inactive; eIF4H inh: -5; PABP polyA inh: 3; MT1-MMP act inh RFP: 0

How did COc1ccc(-n2c(C)c3c(C)nnc(C)c3c2C)cc1OC do in these assays?
MT1-MMP act inh: 1; UUG fidelity: -6; HIV Env fusion: -8; MT1-MMP act inh RFP: -1

Results for O=C1[C@@H]2[C@H](C(=O)N1O)[C@H]1C=C[C@@H]2C1 ?
CSC inhib: -8; MT1-MMP act inh: 3; UUG fidelity: 5; Rce1 inhib: inactive; eIF4H inh: 6; PABP polyA inh: 3; MT1-MMP act inh RFP: 3

Results for COc1ccc(NC(=O)Cn2c(=O)oc3cc(Cl)ccc32)c(OC)c1 ?
CSC inhib: 0; MT1-MMP act inh: 11; UUG fidelity: -7; HIV Env fusion: 15; Rce1 inhib: inactive; eIF4H inh: 3; PABP polyA inh: 10; MT1-MMP act inh RFP: -4

How did Cc1ccc2nc(Nc3ccc(F)cc3)c3nncn3c2c1 do in these assays?
CSC inhib: -7; MT1-MMP act inh: 5; UUG fidelity: -7; HIV Env fusion: 15; Rce1 inhib: inactive; eIF4H inh: -17; PABP polyA inh: -30; MT1-MMP act inh RFP: 6

What do the screens show for `COc1ccc(C(=O)NNC(=O)CSc2nc3c(c(=O)n(C)c(=O)n3C)n2C)cc1`?
CSC inhib: -6; MT1-MMP act inh: 2; HIV Env fusion: 9; Rce1 inhib: inactive; eIF4H inh: -4; PABP polyA inh: -4; MT1-MMP act inh RFP: 4

How did CCOc1ccc(OCC)c(NC(=O)CSc2nc3c(c(=O)n(C)c(=O)n3C)n2CC)c1 do in these assays?
CSC inhib: 7; MT1-MMP act inh: -2; UUG fidelity: -12; HIV Env fusion: 29; Rce1 inhib: inactive; eIF4H inh: -9; PABP polyA inh: -12; MT1-MMP act inh RFP: -7

Results for CNC(=O)CO/N=C/c1ccc(N(C)C)cc1 ?
CSC inhib: -10; MT1-MMP act inh: -2; HIV Env fusion: -13; Rce1 inhib: inactive; eIF4H inh: 0; PABP polyA inh: 9; MT1-MMP act inh RFP: 1

Results for O=C(N/N=C/c1ccc[nH]1)c1ccncc1 ?
CSC inhib: -17; MT1-MMP act inh: -3; UUG fidelity: -8; HIV Env fusion: 0; Rce1 inhib: inactive; eIF4H inh: 3; PABP polyA inh: 0; MT1-MMP act inh RFP: 1

What do the screens show for `COc1ccc(Cl)cc1NC(=O)Cn1c(NCCO)nc2ccccc21`?
CSC inhib: -12; MT1-MMP act inh: 4; UUG fidelity: -8; HIV Env fusion: 5; Rce1 inhib: inactive; eIF4H inh: -2; PABP polyA inh: -7; MT1-MMP act inh RFP: 7

Results for O=C(N/N=C/c1cccs1)c1c[nH]c2ccccc12 ?
CSC inhib: -10; MT1-MMP act inh: -3; UUG fidelity: -15; HIV Env fusion: -252; Rce1 inhib: inactive; eIF4H inh: -3; PABP polyA inh: -3; MT1-MMP act inh RFP: 0

How did Oc1cc2c(cc1O)[C@@H](c1ccccc1)CNCC2 do in these assays?
MT1-MMP act inh: 0; UUG fidelity: -8; HIV Env fusion: -5; eIF4H inh: -3; PABP polyA inh: 8; MT1-MMP act inh RFP: 0

What do the screens show for `O=C(NNC(=S)Nc1ccc(Cl)c(Cl)c1)c1ccccn1`?
CSC inhib: 109*; MT1-MMP act inh: 5; HIV Env fusion: -14; Rce1 inhib: inactive; eIF4H inh: 21; PABP polyA inh: -1; MT1-MMP act inh RFP: -3

How did CC(=O)C1=C(O)C(=O)N(Cc2ccccc2)C1c1cccs1 (stereo not given) do in these assays?
CSC inhib: -1; MT1-MMP act inh: 8; UUG fidelity: -28; HIV Env fusion: 13; Rce1 inhib: inactive; eIF4H inh: 1; PABP polyA inh: 29; MT1-MMP act inh RFP: 4

Results for C/C=C(\C)C(=O)OC1CC(C)(C)C[C@H]2C3=CC[C@@H]4[C@@]5(C)CCC(O[C@@H]6O[C@@H](C(=O)O)[C@@H](O)C(O[C@@H]7OC[C@H](O)[C@@H](O)[C@@H]7O[C@@H]7OC(CO)C(O)[C@@H](O)[C@@H]7O)C6O[C@@H]6OC(CO)C(O)C(O)C6O)[C@@](C)(CO)[C@@H]5CC[C@]4(C)[C@]3(C)CC(O)[C@@]12CO (stereo not given in full) ?
MT1-MMP act inh: -13; UUG fidelity: 39; HIV Env fusion: -23; MT1-MMP act inh RFP: -5

What do the screens show for `CC(=O)N1CCOc2ccc(S(=O)(=O)NC[C@H]3O[C@@H](n4ccc(N)nc4=O)[C@H](O)[C@@H]3O)cc21`?
MT1-MMP act inh: 2; UUG fidelity: -13; HIV Env fusion: 7; MT1-MMP act inh RFP: 4

Results for Cc1cccc(C)c1NC(=O)N1CCC(N2CCCCC2)CC1 ?
CSC inhib: -4; MT1-MMP act inh: 9; UUG fidelity: -12; Rce1 inhib: inactive; eIF4H inh: 3; PABP polyA inh: -2; MT1-MMP act inh RFP: 10

Results for Cc1cc(-n2c(C)cc(C(=O)CN3C(=O)C(=O)N(C)C3=O)c2C)no1 ?
CSC inhib: -3; MT1-MMP act inh: 2; UUG fidelity: -4; MT1-MMP act inh RFP: 2

Results for O=C(O)c1cn(-c2ccccc2)nc1C(=O)O ?
CSC inhib: 5; MT1-MMP act inh: 6; UUG fidelity: -6; Rce1 inhib: inactive; eIF4H inh: -1; PABP polyA inh: -8; MT1-MMP act inh RFP: -1

What do the screens show for `CC(C)NC(=O)NC(=O)COC(=O)c1ccc(S(=O)(=O)Nc2ccccc2)cc1`?
CSC inhib: -9; MT1-MMP act inh: 2; HIV Env fusion: -5; Rce1 inhib: inactive; eIF4H inh: 3; PABP polyA inh: 3; MT1-MMP act inh RFP: 4

What do the screens show for `CC1CCN(S(=O)(=O)c2ccc(C(=O)Nc3nnc(C4CC4)o3)cc2)CC1`?
CSC inhib: 24; MT1-MMP act inh: 2; UUG fidelity: -16; HIV Env fusion: -13; Rce1 inhib: inactive; eIF4H inh: 9; PABP polyA inh: -4; MT1-MMP act inh RFP: -5

How did O=c1c2[nH]c3ccccc3c2ncn1C1CCCCC1 do in these assays?
CSC inhib: 10; MT1-MMP act inh: -3; HIV Env fusion: -98; Rce1 inhib: inactive; eIF4H inh: -8; PABP polyA inh: -4; MT1-MMP act inh RFP: 2

How did Cc1ccc(C(=O)N2CCSC2=S)cc1 do in these assays?
CSC inhib: 4; MT1-MMP act inh: 6; UUG fidelity: -18; HIV Env fusion: 10; Rce1 inhib: inactive; eIF4H inh: -8; PABP polyA inh: -8; MT1-MMP act inh RFP: 4

Results for COc1ccc(C(=O)NCC(=O)NCc2ccc3c(c2)OCO3)cc1[N+](=O)[O-] ?
MT1-MMP act inh: 0; UUG fidelity: -10; HIV Env fusion: -15; MT1-MMP act inh RFP: -2

Results for CCOC(=O)C1=C(c2ccccc2)N=C2SCC(=O)N2C1c1ccc(OC)c(OC)c1 (stereo not given) ?
CSC inhib: 10; MT1-MMP act inh: 6; UUG fidelity: -2; Rce1 inhib: inactive; eIF4H inh: -7; PABP polyA inh: -2; MT1-MMP act inh RFP: 11

What do the screens show for `Cc1cc(C)nc(NC(=O)CSc2nc3ccccc3s2)n1`?
CSC inhib: 4; MT1-MMP act inh: 0; UUG fidelity: -38; Rce1 inhib: inactive; eIF4H inh: -6; PABP polyA inh: 2; MT1-MMP act inh RFP: 2

How did O=C(c1ccccc1F)N1CCN(S(=O)(=O)c2ccc(Br)cc2)CC1 do in these assays?
CSC inhib: -11; MT1-MMP act inh: -1; UUG fidelity: 1; Rce1 inhib: inactive; eIF4H inh: -6; PABP polyA inh: 5; MT1-MMP act inh RFP: -1

In the list so far, these contain two or more sulfur atoms.
How did Cc1ccc(C(=O)N2CCSC2=S)cc1 do in these assays?
CSC inhib: 4; MT1-MMP act inh: 6; UUG fidelity: -18; HIV Env fusion: 10; Rce1 inhib: inactive; eIF4H inh: -8; PABP polyA inh: -8; MT1-MMP act inh RFP: 4

What do the screens show for `Cc1cc(C)nc(NC(=O)CSc2nc3ccccc3s2)n1`?
CSC inhib: 4; MT1-MMP act inh: 0; UUG fidelity: -38; Rce1 inhib: inactive; eIF4H inh: -6; PABP polyA inh: 2; MT1-MMP act inh RFP: 2
